From PubChem
miR-21 reporter: miR-21 reporter, rising signal. Potency, µM (top dose mostly 38.3 µM), inactives show top-dose reporter change, positive = more light. HeLa miR-21 FLuc reporter, luciferase, 48 h. 340,000 tested, under 10 active; active = well fitted rising curve with a large enough effect; inconclusive = small, poorly fitted or top-dose-only effect; inactive = no such curve, though single readings can be large or run the other way;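 also: % of control where 0% means no effect; miR-21 action dims this reporter so a rising signal means less miR-21 action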
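HeLa miR-21-FLuc reporter line, endogenous miR-21; 2000 cells/well in DMEM/10% FBS; compound titration up to ~40uM final, 48 h, 37 degree Celsius; luciferase detection reagent, 15 min lysis, CCD luminescence.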
GLA inh pH 4.5: alpha-galactosidase A (human) inhibition, pH 4.5. P06280. purified enzyme, 4-MU-alpha-Gal fluorescence, pH 4.5. activity change, negative = inhibition, % at 105 µM. 230,000 tested, under 10 active; inconclusive = small, poorly fitted or top-dose-only inhibition, or a rising curve; inactive = flat fitted curve, though single readings scatter; no compound was filed as active;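 also: 0% = full activity with enzyme and -100% = basal without enzyme; dose as in the result columns while the protocol names 77 µM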
Target sequence (P06280 whole entry, looked up): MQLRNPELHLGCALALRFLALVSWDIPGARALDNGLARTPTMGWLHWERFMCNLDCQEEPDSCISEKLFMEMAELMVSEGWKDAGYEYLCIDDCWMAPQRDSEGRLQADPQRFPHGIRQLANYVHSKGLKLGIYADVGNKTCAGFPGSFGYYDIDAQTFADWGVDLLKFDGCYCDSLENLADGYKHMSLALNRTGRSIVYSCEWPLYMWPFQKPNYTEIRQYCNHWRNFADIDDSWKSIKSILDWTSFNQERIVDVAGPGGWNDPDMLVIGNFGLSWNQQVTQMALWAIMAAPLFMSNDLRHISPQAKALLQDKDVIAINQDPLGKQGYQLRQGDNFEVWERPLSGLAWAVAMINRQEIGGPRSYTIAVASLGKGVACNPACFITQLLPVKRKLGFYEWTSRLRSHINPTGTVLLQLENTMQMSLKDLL
Rango dissoc inh: inhibitors of RanGTP-induced Rango-importin beta complex dissociation | O95149+P62826 | Biochemical FRET Rango-importin beta, RanGTP-induced dissociation | Potency, µM (highest dose often 46.1 µM), for the others: top-dose activity change, negative = inhibition | 0.071% of 340,000 active | AID 540253; active means falling FRET ratio curve, often poorly fitted, with flat reads before Ran was added; inconclusive means other falling curves, or compound fluorescence or quenching; inactive means flat or rising ratio curve;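 also: potency is read from the fitted curve at half-maximal effect; % of control where 0% means no effect; nearly all actives have a fitted effect of over 45% in size; -100% = wells without RanGTP and RCC1; the record marks most hits as doubtful in a second field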
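Rango/importin beta premix (0.1/0.25 uM final), PBS + 1 mM DTT + 0.02% Tween-20 + 0.1% BSA; cpd 5 min RT; FRET pre-read; + RanGTP-RCC1 (0.6 uM Ran, 2 mM GTP, 0.2 uM RCC1); 45 min RT; FRET post-read, ex 430, em 486/530 nm.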
Rango-impB inh: inhibitors of Rango-importin beta complex formation. Q14974. Rango CFP/YFP FRET sensor + importin beta, 45 min. Potency, µM (series often up to 92.2 µM), for inactives: at the highest dose inhibition of complex formation. 0.031% of 340,000 active; active = rising FRET ratio curve, often small or poorly fitted; inconclusive = mostly compound fluorescence or quenching in the first reads; inactive = flat curves in all reads;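 also: potency is read from the fitted curve at half-maximal effect; 0% = DMSO wells and 100% = buffer wells lacking importin beta; nearly all actives have a fitted effect of over 15% in size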
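FRET biosensor (snurportin 1 IBB flanked by EYFP and cerulean), 50 nM, with compound 5 min, then 0.125 microM importin beta in PBS, 1 mM DTT, 0.02% Tween-20, 0.1% BSA. CFP/YFP ratio read after 45 min at room temperature; pre-read flags interference.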
Starred values were filed as active, the others as inactive; ? = inconclusive; / = not tested or not shown; & = joins results of further samples. An excerpt, so the mix of outcomes need not match the whole.

miR-21 reporter | GLA inh pH 4.5 | Rango dissoc inh | Rango-impB inh | compound
-7% | -3 | 0% | -2.5% | O=S(=O)(NCC1CCCO1)c1ccc(S(=O)(=O)N2CCCC2)cc1 (stereo not given)
4% | / | 2% | 0.7% | COc1c(C)cc(C(=O)C2CCCN(C(=O)c3cc(C)n(C)n3)C2)cc1C (stereo not given)
-27% | 2 | 14% | 5.0% | Cc1ccccc1C(=O)OCCN1CCOCC1
-19% | 3 | 14% | -2.1% | C/C(N)=C(/C#N)C(=O)COC(=O)c1ccc(O)cc1
-1% | / | -8% | -0.6% | COc1ccc(Cc2nnc(NN)[nH]c2=O)cc1OC
-20% | -1 | -1% | 2.7% | O=C(NC1=NCCS1)c1ccc(Cl)c(S(=O)(=O)N2CCOCC2)c1
3% | 8 | -3% | -2.0% | CCOC(=O)N1CCN(C(=O)C2CCCN(S(=O)(=O)c3ccc(F)cc3)C2)CC1 (stereo not given)
-35% | / | -1% | 2.2% | O=C(NNC(=O)c1ccccc1Br)c1cccs1
-12% | -5 | -4% | ? | O=S(=O)(c1ccc(Nc2ccc3c(c2)OCO3)nc1)N1CCOCC1
-7% | -3 | -13% | -0.1% | Cc1c(NC(=O)c2cc3nc(-c4ccc(Cl)cc4)cc(C(F)(F)F)n3n2)c(=O)n(-c2ccccc2)n1C
-5% | 6 | -17% | 0.0% | COc1ccc(Nc2ccc(Cl)cc2)c(C(=O)O)c1
/ | / | 5% | 0.2% | O[C@H]1c2ccccc2[C@H](Cc2cncs2)[C@@H]1Br
-4% | -6 | 23% | 3.8% | c1ccc(OCCCn2nnc(-c3ccc(N4CCOCC4)cc3)n2)cc1
-9% | -4 | -3% | -1.2% | O=C(Nc1ccccc1)Nc1cccc(Cl)c1Cl
0% | / | 0% | 0.8% | Cc1cccc(C2NC(=O)c3ccccc3O2)c1 (stereo not given)
/ | / | 5% | 0.2% | Cc1ccc(S(=O)(=O)Nc2ccccc2-c2nc3ccccc3[nH]c2=O)cc1
-1% | 14 | 3% | -3.8% | COC(=O)CN1C(=O)C2(C(C#N)=C(N)Oc3n[nH]c(-c4cccs4)c32)c2ccccc21 (stereo not given)
-4% | 4 | 1% | -2.9% | CCSc1nc2ccccc2n1CC(=O)OC
3% | 3 | -5% | -0.3% | CC1(NC(=S)Nc2ccccc2)CCS(=O)(=O)C1 (stereo not given)
/ | / | 4% | 6.8% | CCCCN1C[C@H](COC(=O)CCC)Oc2cccc(F)c2S1(=O)=O
/ | / | 2% | 0.4% | Cc1c(Cl)cccc1NS(=O)(=O)c1ccccc1
13% | -14 | 1% | -1.4% | O=S(=O)(NC1CCCCC1)c1cccc(-c2nnc(-c3ccccc3)o2)c1
-5% | 6 | ? | 0.6% | Cc1nnc(Nc2ccc(Cl)cc2)n(N)c1=O
0% | / | 10% | 0.2% | O=C(CCN1C(=O)/C(=C/c2cccs2)SC1=S)N1CCCCC1

Compound profiles (already shown). Values in the order: miR-21 reporter | GLA inh pH 4.5 | Rango dissoc inh | Rango-impB inh
Profile of `O=C(CCN1C(=O)/C(=C/c2cccs2)SC1=S)N1CCCCC1` : 0% | / | 10% | 0.2%
Profile of `CCSc1nc2ccccc2n1CC(=O)OC` : -4% | 4 | 1% | -2.9%
Profile of `Cc1c(Cl)cccc1NS(=O)(=O)c1ccccc1` : / | / | 2% | 0.4%
Profile of `CC1(NC(=S)Nc2ccccc2)CCS(=O)(=O)C1` (stereo not given) : 3% | 3 | -5% | -0.3%
Profile of `COC(=O)CN1C(=O)C2(C(C#N)=C(N)Oc3n[nH]c(-c4cccs4)c32)c2ccccc21` (stereo not given) : -1% | 14 | 3% | -3.8%

Other structures
miR-21 reporter | GLA inh pH 4.5 | Rango dissoc inh | Rango-impB inh | compound
-9% | 1 | 13% | -1.2% | COc1ccccc1CC(=O)Nc1cccc(F)c1
-40% | -2 | 2% | 1.7% | CCOc1ccc(NC(=O)Nc2nnc(CC)s2)cc1
2% | -15 | 4% | 6.6% | O=C(N/N=C/c1ccccn1)c1cc(-c2ccc(Br)cc2)nc2ccccc12
-2% | -3 | 11% | 0.9% | COC(=O)c1ccc(NC(=O)CSc2nncc3ccc(OC)c(OC)c23)cc1
-4% | -4 | -4% | 1.5% | COc1cc(C(=O)NCCOc2cccc(C)c2)c(Br)c(OC)c1OC
-11% | -8 | 1% | ? | Cc1ccc(C2=NC3(CCCCCC3)NC2=S)cc1
0% | 0 | -3% | 2.3% | Cc1cc(C(=O)NNC(=O)Nc2ccccc2)no1
-3% | 8 | -2% | -0.2% | Cc1cc(N2CCN(Cc3ccccc3)CC2)n2nc(C)c(-c3ccccc3)c2n1
-1% | 0&-30 | -12% | -2.3% | O=c1[nH]c2ccccc2c2ccccc12
/ | / | 0% | 2.3% | CCCCN1CC(COCc2ccccc2)Oc2cccc(N3CCCC3)c2S1(=O)=O (stereo not given)
-3% | / | -3% | 0.4% | COc1ccc(OC)c(/C=N/n2c(COc3ccccc3)n[nH]c2=S)c1
-7% | 4 | -14% | 0.3% | Cc1cccc(C)c1NC(=O)NC1(C(=O)NCCCN2CCOCC2)CCCCC1
3% | -6 | -4% | -0.1% | COc1ccc(C(=O)O)c(OC)n1
16% | / | 6% | 0.0% | CCOc1ccccc1N(CC(=O)Nc1ccccc1)S(=O)(=O)c1ccccc1
-4% | / | 13% | 4.9% | O=C(O)Cc1ccc(NS(=O)(=O)c2ccc3ccccc3c2)cc1
-2% | 13 | -11% | -1.5% | CN(CCO)Cc1csc2ccc(Br)cc12

Some of these compounds in order of the Rango-impB inh value, falling.
miR-21 reporter | GLA inh pH 4.5 | Rango dissoc inh | Rango-impB inh | compound
-5% | 6 | ? | 0.6% | Cc1nnc(Nc2ccc(Cl)cc2)n(N)c1=O
-7% | -3 | -13% | -0.1% | Cc1c(NC(=O)c2cc3nc(-c4ccc(Cl)cc4)cc(C(F)(F)F)n3n2)c(=O)n(-c2ccccc2)n1C
-1% | 14 | 3% | -3.8% | COC(=O)CN1C(=O)C2(C(C#N)=C(N)Oc3n[nH]c(-c4cccs4)c32)c2ccccc21 (stereo not given)

Reprinted at random: four records from the list.
miR-21 reporter | GLA inh pH 4.5 | Rango dissoc inh | Rango-impB inh | compound
-7% | 4 | -14% | 0.3% | Cc1cccc(C)c1NC(=O)NC1(C(=O)NCCCN2CCOCC2)CCCCC1
16% | / | 6% | 0.0% | CCOc1ccccc1N(CC(=O)Nc1ccccc1)S(=O)(=O)c1ccccc1
-4% | / | 13% | 4.9% | O=C(O)Cc1ccc(NS(=O)(=O)c2ccc3ccccc3c2)cc1
-2% | 13 | -11% | -1.5% | CN(CCO)Cc1csc2ccc(Br)cc12

Carrying on.
miR-21 reporter | GLA inh pH 4.5 | Rango dissoc inh | Rango-impB inh | compound
1% | 0 | 7% | 0.5% | CCCOc1ccc(/C(O)=C2\C(=O)C(=O)N(CCCOC)C23C(=O)N(C)c2ccccc23)cc1 (stereo not given)
-17% | 10 | -5% | 0.1% | CCOC(=O)c1[nH]c2c(c1-c1ccccc1)C(=O)CC(c1ccc(OCC)cc1)C2 (stereo not given)
-43% | / | 10% | 2.5% | Cc1cc(N2Cc3ccccc3C2)ccc1C=O
2% | -6 | 1% | 6.8% | Cc1ccc(NC(=O)CCC(=O)NNS(=O)(=O)c2ccccc2)cc1C
0% | / | 14% | 0.8% | CC1CCCC(NC(=O)C2N(CCCN3CCCC3)C(=O)C3C(C(=O)Nc4cccc(Cl)c4)C4C=CC32O4)C1C (stereo not given)
-1% | -20 | -2% | -4.1% | Cc1ccc(-c2ccc(CCC(=O)O)n2NC(N)=S)cc1
3% | / | 12% | -0.4% | CN(Cc1ccccc1O)CC1CCCN(CCc2ccc(Cl)cc2)C1 (stereo not given)
-2% | -6 | 0% | 0.1% | CCCCCCCC(=O)NN=C1CCN(Cc2ccccc2)CC1

3 entries from above, sorted by molar mass, ascending:
miR-21 reporter | GLA inh pH 4.5 | Rango dissoc inh | Rango-impB inh | compound
3% | / | 12% | -0.4% | CN(Cc1ccccc1O)CC1CCCN(CCc2ccc(Cl)cc2)C1 (stereo not given)
1% | 0 | 7% | 0.5% | CCCOc1ccc(/C(O)=C2\C(=O)C(=O)N(CCCOC)C23C(=O)N(C)c2ccccc23)cc1 (stereo not given)
0% | / | 14% | 0.8% | CC1CCCC(NC(=O)C2N(CCCN3CCCC3)C(=O)C3C(C(=O)Nc4cccc(Cl)c4)C4C=CC32O4)C1C (stereo not given)

Going on with the list:
miR-21 reporter | GLA inh pH 4.5 | Rango dissoc inh | Rango-impB inh | compound
11% | -14 | -4% | 4.8% | CCOC(=O)c1c(-c2cccs2)csc1NC(=O)CSc1ncn[nH]1
0% | 9 | 5% | 0.7% | O=C(NC1CSC/C1=N\O)c1ccccc1 (stereo not given)
/ | / | -15% | 4.4% | O=C(N[C@H]1CCC(=O)N(CCSc2ccc(Br)cc2)CC1)OCc1ccccc1
-4% | -6 | -4% | 2.8% | COc1ccc(C)cc1S(=O)(=O)N(CC(=O)N1CCCC1)c1ccccc1
-5% | / | 29% | -1.9% | CC1(C)c2[nH]c3ccccc3c2C[C@H]2C(=O)N(CCCCCO)CC(=O)N21
0% | 4 | 28% | -1.6% | COc1ccc(S(=O)(=O)N2CCOCC2)cc1NC(=O)Cc1ccc(Cl)c(Cl)c1
1% | 1 | -12% | -3.5% | CC(=O)Nc1ccc(S(=O)(=O)NC2(C(F)(F)F)NC(=O)N(C3CCCCC3)C2=O)cc1 (stereo not given)
0% | 0 | 10% | -2.6% | CC(=O)c1c(O)cc(=O)n(-c2ccccc2)c1-c1cccc2ccccc12
/ | / | -12% | 6.6% | C=CCn1c(C)cc(C(=O)COC(=O)C2CC(=O)N(CCc3ccc(OC)c(OC)c3)C2)c1C (stereo not given)
4% | -1 | -4% | -3.2% | O=C(c1cc(-c2ccc3c(c2)OCO3)on1)N1CCOCC1
-8% | -1 | 22% | 1.5% | Cc1cc(C(=O)OCC(=O)NCCc2ccccc2)c(C)o1
-4% | -5 | -8% | 3.7% | COc1ccccc1-n1cnc2c(c1=O)c1nc3ccccc3nc1n2-c1ccc(C)cc1
-3% | -4 | -7% | 1.3% | CC(CC(=O)Nc1cccc(Cl)c1)c1ccccc1 (stereo not given)
14% | -8 | -7% | -0.1% | COc1ccc(C(c2nnnn2Cc2ccccc2)N2CCN(c3nc4ccccc4s3)CC2)cc1OC (stereo not given)
-3% | 2 | 29% | 0.6% | CC(=O)OC(C(=O)NC1CCCCC1)c1ccc(C)cc1 (stereo not given)
-6% | -1 | -11% | ? | Cc1c(Cl)cccc1-c1ccc(C(=O)N2CCN(c3ccc([N+](=O)[O-])cc3)CC2)o1
-6% | 0 | 5% | 1.2% | CC1CCCN(C(=O)c2ccc(CNc3c(N4CCCCC4)c(=O)c3=O)cc2)C1 (stereo not given)
3% | / | -12% | 0.0% | CCN(CC)C(=O)C1CCCN(Cc2ccc3ccccc3c2)C1 (stereo not given)
1% | -4 | 3% | -1.9% | O=C(O)CC(CC(=O)Nc1ccc(N2CCOCC2)cc1)c1ccccc1 (stereo not given)
/ | / | 6% | -1.1% | O=C(OCCN1CCOCC1)c1ccccc1Cl
25% | 1 | 11% | 1.2% | Cc1ccc(S(=O)(=O)NCc2ccc(C(=O)N3CCN(Cc4ccccc4)CC3)cc2)cc1
-1% | / | -15% | 1.2% | CCc1cc(C(=O)N(C)CC(=O)N(CC(C)C)c2c(N)n(CC(C)C)c(=O)[nH]c2=O)sc1C
-3% | -3 | -16% | ? | COc1cc(Nc2nc3ccccc3n3nnnc23)cc(OC)c1OC
1% | 2 | / | / | O=C(Cn1c(=S)[nH]c2ncccc2c1=O)NCCc1ccccc1
-25% | 6 | 1% | 4.2% | O=C(Nc1ccc2oc(-c3cccc(F)c3)nc2c1)c1ccccc1F
